Screens (PubChem BioAssay)
VACV E9 pol inh: inhibitors of vaccinia virus processive DNA synthesis (E9 polymerase). in vitro processive DNA synthesis, absorbance read-out; stronger effect = lower value; some inactives read as strong as hits. normalized absorbance, % (concentration not given with the values). actives 0.94% (n = 46,000);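 active = replicate mean up to 90% and picked by the depositor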;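 note: 100% = median of the test wells of a plate; 100 nL library stock went into each well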
* marks the source's active call; other numbers are inactive results. This is a subset. The share of hits here may be higher or lower than overall.

Start of the data: the first 27 records as a preview:
SMILES | VACV E9 pol inh
COc1ccc2c(c1OC)C(=O)OC2Nc1ccccn1 (stereo unspecified) | 100
CCN(C(=O)Nc1ccccc1)c1ccccc1 | 100
S=C1NC2(CCCC2)NN1c1ccccc1 | 100
O=C(/C=C/c1ccccc1)Sc1nc2ccccc2o1 | 101
CC(C)/C=C1\CCCC\C1=N/n1cnnc1 | 98
CCCN(CCC)C(=O)c1cccc(S(=O)(=O)N2CC(C)CC(C)C2)c1 (stereo unspecified) | 103
CC(=O)Nc1ccncc1NC(C)=O | 100
Nc1ccc(-c2cc3ccccc3o2)cc1 | 100
CSc1ccccc1NC(=O)CSc1cccc[n+]1[O-] | 100
CN(C)/C=C/C(=O)c1ccc(-c2cc(Cl)cc(Cl)c2)o1 | 106
CC(C)CCNC(=O)C1CCN(C(=O)c2cc3sccc3n2C)CC1 | 102
CC(C)(C)N1CC(OC(=O)c2ccc(Cl)cc2)C1 | 103
Cc1c(Cc2ccc(Cl)cc2)c(=O)n2c([nH]c3ccccc32)c1C#N | 100
O=C(O)c1ccc(N2CCCCC2)cc1 | 103
CC(=O)Nc1sc2c(c1C(c1ccccn1)N1CCN(CCO)CC1)CCCC2 (stereo unspecified) | 113
CCCC(=O)Nc1ncnc2c1ncn2C1O[C@@H]2COP(=O)(O)O[C@H]2[C@H]1OC(=O)CCC (stereo partly specified) | 100
N#CCC(=O)c1sccc1-n1cccc1 | 97
CCCOc1ccc(C(=O)N2CCOCC2)cc1OC | 105
CCC(C)NC(=O)c1onc(C)c1Cl (stereo unspecified) | 102
CC1CCCCN1C(=O)NC1(C(F)(F)F)Oc2ccccc2O1 (stereo unspecified) | 96
O=C(COc1ccccc1)N1CCN(Cc2ccccn2)CC1 | 103
Cc1ccc2cc3cc(C(=O)NCCC4=CCCCC4)oc3nc2c1 | 103
OC(COCC1COc2ccccc2O1)C[N+]1(Cc2ccccc2)CCCC1 (stereo unspecified) | 101
O=C(Nc1ccc(Cl)cc1)OC1CN(C(c2ccccc2)c2ccccc2)C1 | 124
COc1cccc(/C=C2/CC(C(C)(C)C)C/C(=C\c3cccc(OC)c3OC)C2=O)c1OC (stereo unspecified) | 105
O=C(Nc1cccnc1Sc1ccc(Cl)cc1)c1ccc(C(F)(F)F)cc1 | 113
NNC(=O)Cc1cccc2ccccc12 | 104

This part in full, previewed entries included:
SMILES | VACV E9 pol inh
COc1ccc2c(c1OC)C(=O)OC2Nc1ccccn1 (stereo unspecified) | 100
CCN(C(=O)Nc1ccccc1)c1ccccc1 | 100
S=C1NC2(CCCC2)NN1c1ccccc1 | 100
O=C(/C=C/c1ccccc1)Sc1nc2ccccc2o1 | 101
CC(C)/C=C1\CCCC\C1=N/n1cnnc1 | 98
CCCN(CCC)C(=O)c1cccc(S(=O)(=O)N2CC(C)CC(C)C2)c1 (stereo unspecified) | 103
CC(=O)Nc1ccncc1NC(C)=O | 100
Nc1ccc(-c2cc3ccccc3o2)cc1 | 100
CSc1ccccc1NC(=O)CSc1cccc[n+]1[O-] | 100
CN(C)/C=C/C(=O)c1ccc(-c2cc(Cl)cc(Cl)c2)o1 | 106
CC(C)CCNC(=O)C1CCN(C(=O)c2cc3sccc3n2C)CC1 | 102
CC(C)(C)N1CC(OC(=O)c2ccc(Cl)cc2)C1 | 103
Cc1c(Cc2ccc(Cl)cc2)c(=O)n2c([nH]c3ccccc32)c1C#N | 100
O=C(O)c1ccc(N2CCCCC2)cc1 | 103
CC(=O)Nc1sc2c(c1C(c1ccccn1)N1CCN(CCO)CC1)CCCC2 (stereo unspecified) | 113
CCCC(=O)Nc1ncnc2c1ncn2C1O[C@@H]2COP(=O)(O)O[C@H]2[C@H]1OC(=O)CCC (stereo partly specified) | 100
N#CCC(=O)c1sccc1-n1cccc1 | 97
CCCOc1ccc(C(=O)N2CCOCC2)cc1OC | 105
CCC(C)NC(=O)c1onc(C)c1Cl (stereo unspecified) | 102
CC1CCCCN1C(=O)NC1(C(F)(F)F)Oc2ccccc2O1 (stereo unspecified) | 96
O=C(COc1ccccc1)N1CCN(Cc2ccccn2)CC1 | 103
Cc1ccc2cc3cc(C(=O)NCCC4=CCCCC4)oc3nc2c1 | 103
OC(COCC1COc2ccccc2O1)C[N+]1(Cc2ccccc2)CCCC1 (stereo unspecified) | 101
O=C(Nc1ccc(Cl)cc1)OC1CN(C(c2ccccc2)c2ccccc2)C1 | 124
COc1cccc(/C=C2/CC(C(C)(C)C)C/C(=C\c3cccc(OC)c3OC)C2=O)c1OC (stereo unspecified) | 105
O=C(Nc1cccnc1Sc1ccc(Cl)cc1)c1ccc(C(F)(F)F)cc1 | 113
NNC(=O)Cc1cccc2ccccc12 | 104
CCOc1ccccc1N1CC(C(=O)O)CC1=O (stereo unspecified) | 99
CN1CCCN=C1/C=C/c1cccs1 | 100
Cc1ccc(C(=O)CSc2nc3cc(C(F)(F)F)ccc3n2C(C)C)cc1 | 100
COc1ccc(N2C(=O)C(CN3CCN(C)CC3)C2c2ccccc2)cc1 (stereo unspecified) | 106
CN1/C(=C/C=C/c2oc3ccccc3[n+]2C)Oc2ccccc21 | 89*
Cc1sc2ncnc(Sc3ncnc4sc(C)c(C)c34)c2c1C | 97
O=C(Nc1ccccc1)OC(CSc1ccccn1)CSc1ccccn1 | 103
O=C(Nc1cc(C(F)(F)F)cc(C(F)(F)F)c1)C(=S)NCCNc1cccc2ccccc12 | 100
CCc1ccc(NC(=O)CC#N)cc1 | 97
Cc1ccc(NC(=O)NC(NC(=O)Cc2ccccc2)(C(F)(F)F)C(F)(F)F)cc1C | 100
Cc1ccccc1Nc1nnc(-c2ccc(C(=O)NCCO)cc2)c2ccccc12 | 99
O=C1c2ccc(F)cc2C(=O)N1N1CCOCC1 | 100
Fc1ccc(-n2cc(-c3ccccc3)c3c(NCc4ccccc4)ncnc32)cc1 | 100
O=C1C=C(Nc2ccc(I)cc2)CCC1 | 88
CCc1ccc(NC(=O)C2NC(=O)CC2c2ccccc2)cc1 (stereo unspecified) | 98
CCc1ccc(NC(=O)c2cccc3c2C(=O)N(CCOC)C3)cc1 | 99
O=C1c2ccccc2-c2c1cnc1c(-c3ccccc3)cnn21 | 102
O=C(c1cc2c(s1)CCCC2)N1CCN(CCO)CC1 | 96
CC(C(=O)O)N1C(=O)/C(=C\c2ccco2)SC1=S (stereo unspecified) | 91
Cc1ccc(NC(=O)C(C)C)c(C(=O)c2ccccc2)c1 | 99
O=C(c1cnn2ccccc12)N1CCc2ccccc21 | 103
O=C(O)c1cccc2c1C(=O)N(C1CCCCC1)C2 | 93
O=C(Sc1ccccn1)N1c2ccccc2Sc2ccccc21 | 100
COc1ccc(-c2nn(CO)c(=S)n2-c2ccccc2)cc1 | 100
Cc1ccc(F)c2ncc3c(=O)n(-c4ccccc4Cl)[nH]c3c12 | 100
CC(C)(C)c1ccc(NC(=O)Nc2cc(C(F)(F)F)ccc2N2CCCC2)cc1 | 101
O=C(/C=C/c1ccc(Br)o1)Nc1ccc(N2CCOCC2)cc1 | 104
CC12CCC(C(=O)O)(CC1O)C2(C)C (stereo unspecified) | 101
COc1ccc(OC)c(NS(=O)(=O)c2cccs2)c1 | 106
CCOC(=O)NCc1ccc2c(c1)cc(C)n2C | 96
CCN(CC)c1nc(-c2ccccc2)nc(-c2ccccc2)c1C#N | 102
Cc1ccc(-c2cc(C(N)=O)on2)cc1 | 93
COc1ccc(CNCc2ccco2)cc1 | 98
(next part)
SMILES | VACV E9 pol inh
O=C(CSc1nnc2sc3ccccc3n12)N1CCOCC1 | 102
Cc1cc(=O)oc2n[nH]c(-c3ccccc3)c12 | 104
O=c1oc2ccccc2c(O)c1Sc1ccccc1 | 98
CC(C)(C)c1ccc(C(=O)Nc2cccc(C(F)(F)F)c2)cc1 | 100
CCn1cc(C(=O)NN)c(=O)c2cc(F)c(NN)cc21 | 100
CC1=NN(c2cc(Cl)cc(Cl)c2)C(=O)CC1 | 94
Cc1nc2nc(SCC(=O)Nc3ccccc3C(F)(F)F)nn2c(C)c1Cc1ccccc1 | 107
O=C(c1cccc(N2C(=O)C3CC=CCC3C2=O)c1)N1CCCCCC1 (stereo unspecified) | 98
Cc1ccc(S(=O)(=O)NCCC(=O)N2CCOCCOCCOCC2)cc1 | 100
COc1ccc2c(c1OC)CN1CCc3cc4c(cc3C1C2)OCO4 (stereo unspecified) | 100
COc1ccc(Nc2ncc(C#N)c(N)n2)c(OC)c1 | 104
COc1ccc(C(=O)/C(C#N)=C/N2CCc3ccccc3C2)cc1 | 109
Cc1ccc(NC2=NC(C)(C)N=C(N)N2)cc1 | 100
O=C1CCC(=O)N1CNc1cc(C(F)(F)F)cc(C(F)(F)F)c1 | 93
Nc1cnn(-c2ccccc2)c(=O)c1N | 101
CC(Sc1ncc(C(F)(F)F)cc1Cl)c1ccn[nH]1 (stereo unspecified) | 99
Cc1c(C#N)c2nc3ccccc3n2c(=O)/c1=C\Nn1cnnc1 | 98
COCCn1c(C)cc(C(=O)COC(=O)c2ccccc2Br)c1C | 100
Cn1c(C(=O)NC2CC2)cc2c(=O)n(C)c3ccccc3c21 | 77
CCc1ccc(/C=C2/C(=O)N(c3ccc(C)c(C)c3)C(=S)N2C)s1 | 100
CN(C)C(=O)C(Cc1ccccc1)N1C(=O)C2C3C=CC(C3)C2C1=O (stereo unspecified) | 102
Cc1ccc(-n2nc(C(=O)NCCc3ccc(Cl)cc3)c3c4ccccc4n(C)c3c2=O)cc1 | 101
CC12CCC(C(=O)Nc3cccnc3)(OC1=O)C2(C)C (stereo unspecified) | 109
O=C(OCC(=O)N1CCCC1)c1ccccc1Cc1ccccc1 | 96
Oc1c(Cl)cc(Cl)cc1/C=N/c1ccnn1-c1ccccc1 | 90
CCc1ccc2c(c1)=C(c1sc(Nc3cccc(Cl)c3C)nc1O)C(=O)N=2 | 100
CCN(CC)C(=O)c1ccc2ccccc2n1 | 95
COc1ccc(C(=O)N/C=C/n2cnc3cc(C(F)(F)F)ccc32)cc1 | 97
COc1ccc(Nc2nnc(C)c3ccccc23)cc1 | 104
Cc1ccc(C(=O)COC(=O)CC2CC3CCC2C3)cc1 (stereo unspecified) | 92
O=C(CSc1ncnc2c1nnn2Cc1ccc(F)cc1)OCc1ccccc1 | 92
O=C(O)c1cc(-c2ccc(Cl)cc2)cc2ccccc12 | 86
Cc1ccc(C(=O)N/C(N)=N/c2nc3ccccc3o2)cc1 | 100
CC1=NN(c2nc3ccccc3s2)C(=O)C1 | 97
CC1COc2c(F)c(F)cc3c(=O)c(C(=O)O)cn1c23 (stereo unspecified) | 100
Cc1ccccc1NC(=S)Nc1ccccc1C(=O)Nc1ccc(F)cc1 | 94

Rewritten as tab-separated lines: entries from further up
SMILES	VACV E9 pol inh
CCN(CC)C(=O)c1ccc2ccccc2n1	95
Oc1c(Cl)cc(Cl)cc1/C=N/c1ccnn1-c1ccccc1	90

Next records follow:
SMILES | VACV E9 pol inh
COc1ccc(/C=c2/sc3nc4ccccc4n3c2=O)cc1 | 95
CC1(C)CCC(C)(C)c2cc(-c3csc(CC#N)n3)ccc21 | 101
CCOC(=O)c1cc(C#N)c(Cl)nc1-c1ccccc1 | 118
CCOC(=O)C1C(OC(=O)c2ccccc2)CC2CCC1N2C (stereo unspecified) | 100
CCOc1ccc(N2C(=O)C3C(C2=O)N2CCCN2C3c2ccc(F)cc2)cc1 (stereo unspecified) | 95
O=C(/C=C/c1ccco1)N(Cc1ccccc1)c1ccccn1 | 94
O=c1c2cnn(-c3ccccc3)c2ncn1/N=C/c1ccc(Cl)cc1 | 113
COc1ccc2c3c([nH]c2c1)C(C)(C(=O)O)NCC3 (stereo unspecified) | 99
Cn1cccc1/C=C1\CCc2ccccc2C1=O | 101
Cc1ccc(C2=NN3C(=O)c4ccccc4C3C2)cc1 (stereo unspecified) | 99
CCC(C)c1ccc(NC(=O)COC(=O)C2CCC2)cc1 (stereo unspecified) | 87
Cc1nn(-c2ccccc2)c2sc(C(=O)N3CCCCC3)cc12 | 85
CCOC(=O)c1sc2nc(C)c(C)c(C)c2c1N | 87
Cc1nn(C)c(Cl)c1C(=O)NCC(=O)O | 74
Cc1cccc(-n2ccnc2SCC(=O)NC2CCCCC2)c1 | 98
Cc1cccc(N2CCN(CCNC(=O)c3cc4c(s3)CS(=O)(=O)C4)CC2)c1C | 102
O=C(O)c1cc2ccc3cccc4ccc(c1)c2c34 | 77*
O=C(O)c1ccc[nH]c1=S | 101
COc1ccc2cc(CCNC(=O)c3cccc(C(F)(F)F)c3)c(=O)[nH]c2c1 | 101
CCCCC[C@H](O)/C=C/[C@@H]1[C@@H](C/C=C\CCCC(=O)O)[C@@H](O)C[C@H]1O | 101
O=C(CCN1CCN(c2ccccc2)CC1)Nc1nccs1 | 102
O=C(Sc1cccc2cccnc12)c1ccccc1Cl | 122
C=CCc1cc(C)ccc1OCC(O)Cn1cnc2ccccc21 (stereo unspecified) | 98
COc1cc(S(C)=O)ccc1-c1nc2ncccc2[nH]1 (stereo unspecified) | 103
O=Nc1cc(CN2CCCCC2)c(O)c2ncccc12 | 107
COc1ccc(/C=C/C(=O)Nc2ccccc2N2CCCCC2)cc1OC | 106
CSc1ccc(Cl)c(C(=O)OCC(=O)N2CCc3ccccc3C2)c1 | 100
COc1ccc(-c2noc(N(C)CC(=O)N3CCN(c4ccccc4OC)CC3)n2)cc1 | 93
O=C(NCc1ccc(F)cc1)C1CC(=O)N(Cc2ccco2)C1 (stereo unspecified) | 96
COc1ccc(CCNC(=O)C23CC4CC(CC(C4)C2)C3)cc1OC | 103
Cc1cc(=O)oc2c(CNC(CC(C)C)C(=O)O)c(O)ccc12 (stereo unspecified) | 101
CCCOc1ccc(/C=C/C(=O)Nc2nccs2)cc1OC | 100
Cc1cc2nc(SCCN3CCCC3)[nH]c2cc1C | 98
CCOC(=O)c1c(-c2ccccc2)oc2ccc(O)cc12 | 100
CN(N)c1nc2ccccc2nc1C(F)(F)F | 114
c1ccc2c(c1)nc(-c1ccncc1)n1nnnc21 | 91
C=C1C(=O)OC2C1CCC1(C)CCC=C(C)C21 (stereo unspecified) | 100
COc1ccccc1N(C)S(=O)(=O)c1ccc(Cl)cc1 | 115
COc1ccc(-c2csc(C3COc4ccccc4O3)n2)c(OC)c1 (stereo unspecified) | 100
Cc1ccc(N2C(=O)C(F)(F)C2c2ccccc2)cc1 (stereo unspecified) | 105
COc1ccc2oc(/C=C/N(C)C)c(C(=O)c3ccc(Br)cc3)c2c1 | 97
CCc1cc(CC)c(/C=N/O)c(CC)c1/C=N/O | 98
O=c1/c(=C/C=C/c2ccccc2)sc2nc3ccccc3n12 | 100
